GLA inh pH 4.5: blocks human alpha-galactosidase A at pH 4.5 | purified enzyme, 4-MU-alpha-Gal fluorescence, pH 4.5 | activity change, negative = inhibition, % at 105 µM | AID 1467 | 230,000 tested, under 10 active | P06280; inconclusive = small, poorly fitted or top-dose-only inhibition, or a rising curve; inactive = flat fitted curve, though single readings scatter; no compound was filed as active;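 also: 0% = full activity with enzyme and -100% = basal without enzyme; dose as in the result columns while the protocol names 77 µM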
Rango-impB inh: inhibitors of Rango-importin beta complex formation; Rango CFP/YFP FRET sensor + importin beta, 45 min; Potency, µM (top dose mostly 92.2 µM), without a hit: at the highest dose inhibition of complex formation; 340,000 tested, 0.031% active; active = rising FRET ratio curve, often small or poorly fitted; inconclusive = mostly compound fluorescence or quenching in the first reads; inactive = flat curves in all reads;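 also: potency is read from the fitted curve at half-maximal effect; 0% = DMSO wells and 100% = buffer wells lacking importin beta; nearly all actives have a fitted effect of over 15% in size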
Target sequence (Q14974 whole entry, looked up): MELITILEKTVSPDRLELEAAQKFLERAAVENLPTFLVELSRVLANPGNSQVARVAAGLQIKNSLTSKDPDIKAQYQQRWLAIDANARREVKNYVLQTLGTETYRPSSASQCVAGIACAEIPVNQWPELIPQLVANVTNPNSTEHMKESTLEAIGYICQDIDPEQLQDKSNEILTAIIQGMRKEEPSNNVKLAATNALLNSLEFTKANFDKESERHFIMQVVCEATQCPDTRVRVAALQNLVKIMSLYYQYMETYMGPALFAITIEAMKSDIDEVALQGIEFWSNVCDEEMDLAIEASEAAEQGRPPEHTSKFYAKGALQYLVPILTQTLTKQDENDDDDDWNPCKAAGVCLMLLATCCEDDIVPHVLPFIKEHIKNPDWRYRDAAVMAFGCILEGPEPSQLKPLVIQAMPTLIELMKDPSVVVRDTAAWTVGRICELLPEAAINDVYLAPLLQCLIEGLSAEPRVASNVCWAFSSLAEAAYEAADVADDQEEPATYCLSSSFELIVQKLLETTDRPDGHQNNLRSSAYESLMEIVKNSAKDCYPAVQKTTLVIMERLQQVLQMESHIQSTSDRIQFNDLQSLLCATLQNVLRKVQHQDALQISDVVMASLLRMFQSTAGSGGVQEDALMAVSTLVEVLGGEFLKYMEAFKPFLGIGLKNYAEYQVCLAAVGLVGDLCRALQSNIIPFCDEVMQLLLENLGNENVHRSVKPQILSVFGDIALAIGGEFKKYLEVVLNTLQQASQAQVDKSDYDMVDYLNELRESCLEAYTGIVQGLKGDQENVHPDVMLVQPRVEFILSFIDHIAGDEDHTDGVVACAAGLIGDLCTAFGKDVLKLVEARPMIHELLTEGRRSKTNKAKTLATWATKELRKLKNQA
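FRET biosensor (snurportin 1 IBB flanked by EYFP and cerulean), 50 nM, with compound 5 min, then 0.125 microM importin beta in PBS, 1 mM DTT, 0.02% Tween-20, 0.1% BSA. CFP/YFP ratio read after 45 min at room temperature; pre-read flags interference.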
miR-21 reporter: miR-21 reporter, rising signal | AID 2288 | HeLa miR-21 FLuc reporter, luciferase, 48 h | 340,000 tested, under 10 active | Potency, µM (top dose mostly 38.3 µM), for inactives: at the top dose reporter change, positive = more light; active = well fitted rising curve with a large enough effect; inconclusive = small, poorly fitted or top-dose-only effect; inactive = no such curve, though single readings can be large or run the other way;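 also: % of control where 0% means no effect; miR-21 action dims this reporter so a rising signal means less miR-21 action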
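Compounds were titrated across several concentrations (up to approximately 40 uM) and incubated 48 hours with HeLa miR-21-FLuc reporter cells (miR-21 target sequence downstream of FLuc, endogenous miR-21). Readout was firefly luciferase luminescence after lytic detection reagent.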
Rango dissoc inh: prevents RanGTP from dissociating the Rango-importin beta complex; Biochemical FRET Rango-importin beta, RanGTP-induced dissociation; Potency, µM (titrated, usually from 46.1 µM), for the others: top-dose activity change, negative = inhibition; 340,000 tested, 0.071% active; active means falling FRET ratio curve, often poorly fitted, with flat reads before Ran was added; inconclusive means other falling curves, or compound fluorescence or quenching; inactive means flat or rising ratio curve;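 also: potency is read from the fitted curve at half-maximal effect; % of control where 0% means no effect; nearly all actives have a fitted effect of over 45% in size; -100% = wells without RanGTP and RCC1; the record marks most hits as doubtful in a second field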
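Quantitative HTS using a FRET biosensor: 0.1 uM Rango, 0.25 uM importin beta, 0.6 uM Ran, 2 mM GTP, 0.2 uM RCC1 final, PBS with DTT, Tween-20 and BSA. Post-read taken 45 min after Ran addition.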
Starred values were filed as active, the others as inactive; ? = inconclusive; . = no result given; & = joins results of further samples.

SMILES	GLA inh pH 4.5	Rango-impB inh	miR-21 reporter	Rango dissoc inh
CCNc1ccc(C(=O)NN=C2CCCC2)cc1[N+](=O)[O-]	6	0.4%	17%	-29%
Cc1[nH]n(-c2ccccc2)c(=O)c1/C=N\NC(=O)C1COc2ccccc2O1 (centres undefined)	-11	-0.1%	24%	2%
CCOC(=O)C1CCN(C(=O)c2ccc3c(SCC(=O)O)c4c(nc3c2)CCCC4)CC1	-5	4.3%	2%	-13%
S=c1[nH]nc(-c2ccc3ccccc3n2)n1-c1ccc2c(c1)OCCO2	-11	1.5%	-14%	1%
COCCn1nnnc1C(C(C)C)N(Cc1ccccc1)Cc1cc2cc(OC)ccc2[nH]c1=O (centres undefined)	-5	0.2%	-8%	-6%
CCC(C(=O)OC)(C(=O)OC)c1ccc([N+](=O)[O-])cc1	-1	-0.3%	2%	6%
COc1ccc(OC)c(NC(=O)CSc2nc3c(c(=O)n(C)c(=O)n3C)n2C)c1	4	0.2%	-3%	6%
O=C(NC1CCCc2c1cnn2-c1cc(F)cc(F)c1)c1ccccn1 (centres undefined)	.	-4.8%	.	0%
Cc1ccc(-c2n[nH]c(=S)n2-c2ccccc2)cc1	-1	0.0%	4%	2%
COc1ccc2c(C)cc(SCC(=O)Nc3ccc(Cl)cn3)nc2c1	-2	?	-1%	?
CCOC(=O)N1CCN(S(=O)(=O)c2ccc(C)cc2)CC1	.	-2.4%	-4%	9%
O=C(NCCO)/C(=C\c1ccco1)NC(=O)c1ccco1	.	?	-5%	-15%
Cc1nn(-c2ccccc2)c2sc(C(=O)N3CCOCC3)cc12	11	-1.5%	-57%	8%
CCc1nnc(NC(=O)c2sc3nc4c(cc3c2N)CCCCC4)s1	-14	?	-51%	?
CC[C@@H](C)[C@@H](C(=O)N1CCN(C(=O)OC(C)(C)C)CC1)n1cc(CCC(=O)O)nn1	3	0.0%	-1%	-5%
Cc1cc(NC(=O)c2ccc(-c3ccccc3F)o2)no1	6	-1.4%	-46%	-14%
CN(CC(=O)Nc1ccccc1Cl)C(=O)COC(=O)c1ccc(C(F)(F)F)cc1	.	1.0%	.	-4%
Cc1ccc(C)c(OCC(=O)Nc2ccc3c(c2)OCO3)c1C	-8	-2.1%	13%	8%
Cn1c(-c2ccc(F)cc2)cnc1SCC(=O)Nc1ccccc1N1CCOCC1	2	0.6%	-42%	1%
COc1cccc(NC(=O)C2CCC(CNS(=O)(=O)c3cccc4cccnc34)CC2)c1 (centres undefined)	.	3.8%	-3%	0%

13 consecutive records out of the list so far, quoted:
SMILES	GLA inh pH 4.5	Rango-impB inh	miR-21 reporter	Rango dissoc inh
COCCn1nnnc1C(C(C)C)N(Cc1ccccc1)Cc1cc2cc(OC)ccc2[nH]c1=O (centres undefined)	-5	0.2%	-8%	-6%
CCC(C(=O)OC)(C(=O)OC)c1ccc([N+](=O)[O-])cc1	-1	-0.3%	2%	6%
COc1ccc(OC)c(NC(=O)CSc2nc3c(c(=O)n(C)c(=O)n3C)n2C)c1	4	0.2%	-3%	6%
O=C(NC1CCCc2c1cnn2-c1cc(F)cc(F)c1)c1ccccn1 (centres undefined)	.	-4.8%	.	0%
Cc1ccc(-c2n[nH]c(=S)n2-c2ccccc2)cc1	-1	0.0%	4%	2%
COc1ccc2c(C)cc(SCC(=O)Nc3ccc(Cl)cn3)nc2c1	-2	?	-1%	?
CCOC(=O)N1CCN(S(=O)(=O)c2ccc(C)cc2)CC1	.	-2.4%	-4%	9%
O=C(NCCO)/C(=C\c1ccco1)NC(=O)c1ccco1	.	?	-5%	-15%
Cc1nn(-c2ccccc2)c2sc(C(=O)N3CCOCC3)cc12	11	-1.5%	-57%	8%
CCc1nnc(NC(=O)c2sc3nc4c(cc3c2N)CCCCC4)s1	-14	?	-51%	?
CC[C@@H](C)[C@@H](C(=O)N1CCN(C(=O)OC(C)(C)C)CC1)n1cc(CCC(=O)O)nn1	3	0.0%	-1%	-5%
Cc1cc(NC(=O)c2ccc(-c3ccccc3F)o2)no1	6	-1.4%	-46%	-14%
CN(CC(=O)Nc1ccccc1Cl)C(=O)COC(=O)c1ccc(C(F)(F)F)cc1	.	1.0%	.	-4%

New compounds follow.
SMILES	GLA inh pH 4.5	Rango-impB inh	miR-21 reporter	Rango dissoc inh
COCCCn1c(=O)c2sccc2n(Cc2ccccc2C)c1=O	.	-1.0%	-8%	1%
Clc1ccc(-c2nc(-c3ccccn3)no2)cc1Cl	0	4.2%	-54%	-3%
Cc1cc(C)c(S(=O)(=O)NCC(=O)O)cc1C	4	3.1%	0%	10%
Cc1nn(C)c(C)c1/C=N/NC(=O)C(C)(C)Oc1ccc(Cl)cc1	-13	-5.7%	-3%	18%
CC(C)(CO)NCc1cc(Br)ccc1OCc1ccccc1	?	3.5%	0%	8%
CCOC(=O)c1[nH]c2ccc(OC)cc2c1NC(=O)c1ccccc1C(=O)O	.	0.5%	-55%	-14%
CC(=O)NC(Cc1ccccc1)C(=O)NC1CCN(C(=O)c2cnccn2)CC1 (centres undefined)	0	-0.8%	1%	-2%
Cn1c2ccccc2c(=O)c2c(=O)n(-c3ccccc3)c(-c3ccc(C(C)(C)C)cc3)nc21	-11	1.2%	-12%	-5%
Fc1cccc(Nc2cc(-n3cccn3)ncn2)c1	6	-1.2%	-17%	-8%
CC(=O)NC1=NN(C(C)=O)C(C)(c2ccc(C)cc2)S1 (centres undefined)	-9	2.6%	-5%	-9%
Cc1ccc2oc(=O)cc(/C=C/c3ccccc3)c2c1	-2	1.0%	-7%	20%
NNC(=O)C(Cc1ccccc1)NC(=O)OCc1ccccc1 (centres undefined)	-2	-0.5%	-6%	3%
O=c1c(C=NCCCn2ccnc2)c(-c2ccccc2)[nH]n1-c1nc2ccccc2s1	0	?	-7%	-3%
CCOC(=O)C1=C(COC(=O)/C=C/c2ccccc2)NC(=O)NC1C (centres undefined)	.	-0.3%	.	-12%
COC(=O)c1cc(OC)c(OC)cc1NC(=O)c1ccc(OC)cc1	4	2.5%	-5%	5%
C[C@H]1CN([C@@H](C)CO)C(=O)Cc2cc(NC(=O)CCC(F)(F)F)ccc2O[C@H]1CN(C)S(C)(=O)=O	.	-4.0%	.	-2%
Cn1cccc1/C=N/NC(=O)c1ccc(OC(F)(F)C(F)F)cc1	4	-3.1%	-51%	-2%
COc1ccc(/C=C/c2ccc3ccccc3[n+]2C)cc1OC	.	8.8%	-26%	-10%
CCCN(CCC)C(=O)c1cc2c(=O)n3cccc(C)c3nc2s1	.	-2.3%	-22%&-1%	-7%
Cc1ccc(Oc2ccc(C(F)(F)F)cc2[N+](=O)[O-])c([N+](=O)[O-])n1	-13	-0.7%	-33%	-2%
COCCOC(=O)c1c(NC(=O)CN2c3ccccc3CC2C)sc(C(N)=O)c1C (centres undefined)	10	-1.0%	4%	6%
O=C(Cn1cnc2cc([N+](=O)[O-])ccc2c1=O)N1CCN(S(=O)(=O)c2ccccc2)CC1	.	0.3%	.	-13%
CN1C(=O)C(C)(C)c2cc(S(=O)(=O)N3CCCCCC3)ccc21	.	-5.9%	-1%	-10%
CCOC(=O)c1ccccc1NC(=O)Cc1sc(-c2cccnc2)nc1-c1ccc(C)cc1	-4	.	-9%	.
CCN(CC)C(=O)COc1ccc(/C=N/NC(=O)c2cc(-c3ccccc3OC)nc3ccccc23)cc1OC	.	?	.	1%
CCNc1nc(NCC)nc(N(C)n2cnnc2)n1	-3	4.3%	-6%	2%
COc1ccc(/C(C)=N/NC(=O)CNC(=O)c2ccco2)c(OC)c1	.	0.4%	-3%	8%
COCCN(C(=O)Nc1ccc(OC)cc1)c1nc2ccccc2s1	.	0.9%	-31%	16%
COC(C[C@@H](O)C[C@@H](O)[C@H](C)OCc1ccccc1)OC	.	3.3%	.	-11%
Cc1ccccc1Nc1nnc(SCC(=O)N(C)C2CCS(=O)(=O)C2)s1 (centres undefined)	1	1.6%	-5%	-1%
COC(=O)CSc1nc(N2CCOCC2)c2c(c1C#N)CCCC2	1	-2.2%	-3%	10%
COc1ccc(Nc2nc3ccccc3n3cnnc23)cc1Cl	.	-0.5%	-19%	0%
O=C(Nc1ccccc1)O/N=C/c1ccncc1	9	-4.6%	-33%	13%
O=C(NC(=S)Nc1nc(-c2ccccc2)cs1)c1cncc(Br)c1	-4	-2.3%	-12%	4%
O=C(CNC(=O)c1ccc(Br)o1)NCc1ccc(Cl)cc1	.	-3.6%	0%	-2%
CCc1cccc2c(C(=O)C(NCCOC)c3ccccc3)c[nH]c12 (centres undefined)	.	-1.7%	1%	4%
CN(C(=O)CSc1nnnn1-c1ccc(O)cc1)C1CCCCC1	.	-2.6%	.	0%
CCOc1ccccc1OCC(=O)Nc1ccc(S(=O)(=O)N(C)C)cc1	2	-1.4%	1%	-6%
CCOC(=O)Nc1ccc2c(c1)N(C(=O)N(CC)CC)c1ccccc1CC2	-21	-0.3%	-14%	-4%
FC(F)(F)c1ccccc1C1=CC(c2ccccc2)n2ncnc2N1 (centres undefined)	.	?	.	?
COc1ccc2oc(C(=O)c3ccccc3)c(NC(=O)CN3CCN(C)CC3)c2c1	-6	4.9%	-19%	24%
CCOc1cc(/C=N/O)cc(Cl)c1OC	-9	-3.2%	-9%	4%
C=CCN1C(=O)/C(=C/c2ccc(OC(C)=O)c(OCC)c2[N+](=O)[O-])SC1=S	8	6.9%	22%	11%
CC1CCCC(C)N1/N=C/c1ccccc1OC(F)F (centres undefined)	2	2.9%	-1%	-16%
C=CCn1c(SCC(=O)Nc2nnc(CC)s2)nnc1-c1ccco1	-1	1.8%	-4%	9%
Cc1ccc(NC(=O)c2cccc3c2C(=O)N(C2CCCCC2)C3)c(C)c1	.	-0.5%	2%&-5%	-13%
CCOc1cc(CN2CCN(c3ccc(C(C)=O)cc3)CC2)ccc1OC	11	1.5%	3%	0%
CCOc1ccc(OCC)c(S(=O)(=O)N2CCC(C)CC2)c1	3	0.3%	-6%	2%
Cc1cccc(NC(=O)CCNS(=O)(=O)c2cccc3nsnc23)c1C	.	-2.3%	2%&13%	12%
COCCNC(=O)CCCN1C(=O)c2ccccc2Sc2ncccc21	.	1.3%	-1%&-1%	7%

More results:
SMILES	GLA inh pH 4.5	Rango-impB inh	miR-21 reporter	Rango dissoc inh
C=C(C)C1CC=C(C)/C(=N\NC(=O)CCc2ccccc2)C1 (centres undefined)	0	0.4%	-5%	4%
COc1ccc(Nc2cc(C)nc3ccccc23)cc1	8	2.1%	3%	0%
COc1ccc(CN2CCN(Cc3ccon3)CC2CCO)c(C)c1C (centres undefined)	-2	-2.0%	0%	-8%
Cc1cccc(NC(=O)Nc2ccc3c(c2)CCC3)c1	.	0.5%	-53%	1%
CCc1ccc(-c2nn(-c3ccccc3)cc2C2SCC(=O)N2Cc2ccco2)cc1 (centres undefined)	-17	-0.1%	17%	0%
N#Cc1ccc(CN2CCN(c3ccc(S(=O)(=O)N4CCCC4)cn3)CC2)cc1	.	-0.3%	.	-4%
CN(C)S(=O)(=O)c1cccc(NC(=O)COC(=O)c2cn(-c3ccccc3)nc2-c2ccccc2)c1	-10	-1.5%	14%	-4%
O=C(O)Cn1c(C(F)(F)F)nc2ccccc21	14	3.6%	0%	11%
C/C(=N/NS(=O)(=O)c1ccc(C)cc1)c1ccc(NC(=O)C(F)(F)F)cc1	2	1.8%	5%	-15%
CCOc1ccc(N2C(=O)CC(Sc3nc(-c4cccs4)cc(C(F)(F)F)c3C#N)C2=O)cc1 (centres undefined)	-2	?	-3%	?
CC1CCN(c2nc3ccc(C(=O)NCCCN4CCCCC4)cc3s2)CC1	.	3.7%	-64%	-7%
Cc1ccc([C@@H]2[C@@H]3C(=O)N(C)C(=O)[C@@H]3[C@]3(C)C(=O)N(Cc4ccccc4)CC(=O)N23)o1	.	?	0%	2%
CCN1CCN(c2cc(C)c3cc(NC(=O)c4ccc(OC)c(OC)c4)ccc3n2)CC1	-12	-0.9%	10%&7%	?
O=C(c1ccc(Cl)cc1)N1CCc2c([nH]c3ccccc23)C1C(F)(F)F (centres undefined)	?	2.9%	18%	17%
CC(C(=O)Nc1ccccn1)N1C(=O)c2ccccc2S1(=O)=O (centres undefined)	.	0.2%	.	10%

The list is partial; the hit share may differ from the screen's.
